Mtb growth = M. tuberculosis H37Rv growth inhibitors, H37Rv strain (AID 1626); M. tuberculosis H37Rv growth inhibition; higher % means a stronger effect; inhibition, % at 10 µM, or IC50 in µM where a hit was titrated; actives 0.95% (n = 220,000);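 active means confirmed in a dose series; inconclusive means inhibition above 80% but not taken into the dose series; inactive means below 80% or under 30% at every dose of the series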;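 further: bacteria incubated seven days before Alamar blue readout; 0% = bacteria only wells and 100% = bacteria with antibiotic wells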
RecA splice inh = blocks M. tuberculosis RecA intein splicing. P9WHJ3. cell-free RecA intein splicing, fluorescence. inhibition, %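 (about 9 µM by stock and volumes)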. actives 0.75% (n = 290,000); in the data active means inhibition above about 30%; inconclusive means no clear call, values can overlap the other calls;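 further: 0% = vehicle wells and 100% = reference inhibitor control wells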
Target sequence (P9WHJ3 whole entry, looked up, canonical isoform): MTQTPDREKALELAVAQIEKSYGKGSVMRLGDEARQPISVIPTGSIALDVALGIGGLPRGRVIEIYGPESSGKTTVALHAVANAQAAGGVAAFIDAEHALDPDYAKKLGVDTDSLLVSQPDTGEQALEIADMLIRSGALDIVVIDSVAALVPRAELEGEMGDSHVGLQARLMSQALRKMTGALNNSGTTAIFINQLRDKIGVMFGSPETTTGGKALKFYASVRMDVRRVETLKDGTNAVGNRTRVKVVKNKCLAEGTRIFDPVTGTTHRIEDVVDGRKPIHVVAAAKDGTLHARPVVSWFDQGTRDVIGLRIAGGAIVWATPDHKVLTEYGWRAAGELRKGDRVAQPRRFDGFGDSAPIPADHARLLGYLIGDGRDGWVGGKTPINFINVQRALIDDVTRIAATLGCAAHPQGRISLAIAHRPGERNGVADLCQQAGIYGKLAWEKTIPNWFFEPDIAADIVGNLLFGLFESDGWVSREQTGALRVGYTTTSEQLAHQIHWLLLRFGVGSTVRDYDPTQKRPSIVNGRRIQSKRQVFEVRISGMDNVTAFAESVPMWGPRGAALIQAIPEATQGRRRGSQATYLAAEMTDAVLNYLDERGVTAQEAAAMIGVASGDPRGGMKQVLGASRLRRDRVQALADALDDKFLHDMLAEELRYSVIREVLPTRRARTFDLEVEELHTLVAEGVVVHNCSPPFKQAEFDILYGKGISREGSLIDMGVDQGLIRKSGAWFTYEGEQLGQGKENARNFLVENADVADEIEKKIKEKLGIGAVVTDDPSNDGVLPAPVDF
Mtb betalactam = beta-lactam sensitization of Mtb H37Rv; M. tuberculosis H37Rv growth with meropenem, percent inhibition; hits of this screen are not shown here; inhibition, % at 25 µM; actives 0.27% (n = 330,000);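 active means about 74% or more and at least 40 points above the plate without the antibiotic, then above 30% in a dose series; inconclusive means first-round hits that could not be retested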;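 further: growth measured after seven days incubation then overnight dye step; 0% = bacteria only wells and 100% = bacteria with antibiotic; twin plates without the antibiotic show which effects depend on it; some results filed as inactive read as strong as hits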
Arbovirus anti = blocks arbovirus infection. AID 1251. arbovirus infection cell-based antiviral screen. inhibition, % at 10 µM. actives 0.37% (n = 200,000);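 active means inhibition from about 30%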;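 further: bluetongue infection of BSR cells; cell survival read as ATP light after 72 h; 0% = infected wells without compound and 100% = uninfected wells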
YopH PTP inh = YopH (Yersinia) phosphatase inhibition; inhibition, %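 (about 10 µM by stock and volumes)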; actives 0.16% (n = 140,000); fluorescence Ex485/Em525; AID 898;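 active means inhibition of 50% or more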;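 further: controls were vehicle for no effect and minimum signal wells for full effect; inactives centre near -20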
Arbovirus anti repeat = recorded beside Arbovirus anti, whose call it bears; inhibition, %; measured here: 10K subset replicate screen; many hits read low in the repeat;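 first of two repeat runs on a subset; 0% = infected and 100% = uninfected wells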
Numbers without * were called inactive; ? = inconclusive; . = not tested or not shown. The list is partial; the hit share may differ from the screen's.

Sample of the layout, 6 compounds:
SMILES | Mtb growth | RecA splice inh | Mtb betalactam | Arbovirus anti | YopH PTP inh | others
C=CCc1cccc(/C=N/NC(=O)CCC(=O)Nc2ccc(F)cc2)c1O | 0% | -1.5 | 5 | -35 | -31
O=C(COC(=O)[C@H](Cc1ccccc1)NC(=O)c1ccco1)NC(c1ccccc1)c1ccccc1 | -1% | 16 | -2 | -3 | -28
O=S(=O)(c1ccccc1)N1CCN(c2ccccc2)CC1 | . | -1.1 | -8 | . | .
COc1ccc(/C=C2\N=C(C(C)(C)C)OC2=O)c(OC)c1 | . | 0.4 | 8 | . | .
c1ccc(SCCOCCN2CCOCC2)cc1 | . | -5.0 | -3 | . | .
O=C(CN1CCc2ccccc21)NN1CC(=O)N(c2ccccc2)CC1=O | -8% | -2.3 | 37 | . | .

All compounds of this part, previewed entries included:
SMILES | Mtb growth | RecA splice inh | Mtb betalactam | Arbovirus anti | YopH PTP inh | others
C=CCc1cccc(/C=N/NC(=O)CCC(=O)Nc2ccc(F)cc2)c1O | 0% | -1.5 | 5 | -35 | -31
O=C(COC(=O)[C@H](Cc1ccccc1)NC(=O)c1ccco1)NC(c1ccccc1)c1ccccc1 | -1% | 16 | -2 | -3 | -28
O=S(=O)(c1ccccc1)N1CCN(c2ccccc2)CC1 | . | -1.1 | -8 | . | .
COc1ccc(/C=C2\N=C(C(C)(C)C)OC2=O)c(OC)c1 | . | 0.4 | 8 | . | .
c1ccc(SCCOCCN2CCOCC2)cc1 | . | -5.0 | -3 | . | .
O=C(CN1CCc2ccccc21)NN1CC(=O)N(c2ccccc2)CC1=O | -8% | -2.3 | 37 | . | .
Cc1ccc2nc(C3CCCN3Cc3nc(CCC(C)C)no3)[nH]c2c1 (centres undefined) | 5% | -0.2 | 13 | 7 | .
COC(=O)C1Cc2c([nH]c3ccccc23)C2(CCN(Cc3ccccc3)CC2)N1 (centres undefined) | . | 0.6 | 50 | . | .
CCCCN1CCc2c([nH]c3ccc(C)cc23)C1=O | -1% | 3.3 | ? | 5 | -39
COc1ccc2[nH]cc(CCNC(=S)NC3CCCC3)c2c1 | 4% | -2.5 | -3 | 13 | .
Cc1ccc(-c2noc(CSc3ccccc3)n2)cc1 | -16% | 5.6 | -8 | 0 | -4
O=[N+]([O-])c1ccccc1CN1CCN(c2ncccn2)CC1 | . | -3.5 | 0 | . | .

Part of the list above in order of formula weight, high to low:
SMILES | Mtb growth | RecA splice inh | Mtb betalactam | Arbovirus anti | YopH PTP inh | others
O=C(COC(=O)[C@H](Cc1ccccc1)NC(=O)c1ccco1)NC(c1ccccc1)c1ccccc1 | -1% | 16 | -2 | -3 | -28
C=CCc1cccc(/C=N/NC(=O)CCC(=O)Nc2ccc(F)cc2)c1O | 0% | -1.5 | 5 | -35 | -31
Cc1ccc(-c2noc(CSc3ccccc3)n2)cc1 | -16% | 5.6 | -8 | 0 | -4

Next section.
SMILES | Mtb growth | RecA splice inh | Mtb betalactam | Arbovirus anti | YopH PTP inh | others
N#Cc1c(-c2ccc(C(F)(F)F)cc2)cc(-c2ccccc2)[nH]c1=S | 3% | 16 | -2 | 1 | -7
O=C(Nc1ccncc1)C1CCN(S(=O)(=O)c2c(Cl)cccc2Cl)CC1 | . | 1.5 | 5 | . | .
Cc1ccc(-n2cc(CN3CCNC(=O)CC3)c(-c3ccc(F)cc3)n2)cc1 | -3% | 1.6 | -2 | . | .
CC(C)C(=O)Nc1ccccc1-c1nc2ccccc2[nH]c1=O | . | 1.4 | 0 | . | .
CN(CCOC(=O)c1cccc(Br)c1)C(C)(C)C | . | -1.5 | -5 | -1 | -15
CCOC(=O)c1[nH]c2ccccc2c1N=CN(CC)CC | -12% | 0.5 | -4 | 5 | -41
O=C(CN(CC1CCCO1)C(=O)CNS(=O)(=O)c1ccc(F)cc1)NCC1CCCO1 (centres undefined) | . | -3.7 | -6 | . | .
O=C(O)c1cccc(Nc2ccncc2[N+](=O)[O-])c1 | . | -1.7 | 6 | . | .
O=C(O)c1ccc(S(=O)(=O)c2ccccc2C(=O)O)c([N+](=O)[O-])c1 | . | -0.7 | 8 | . | .
O=C(NC(=S)NCCN1CCOCC1)c1ccc(Cl)cc1 | 9% | -0.6 | 5 | 8 | 2
COc1ncnc2c1oc1nc(C)c3c(c12)CC(C)(C)OC3 | -5% | 1.8 | -10 | . | .
COc1ccc(/C=C2\SC(=O)N(CC(=O)NNC(=O)c3ccccc3O)C2=O)cc1 | -4% | -5.0 | 4 | -23 | -31
CCOc1ccc(N/C(N)=N/c2nc(CSc3nnnn3-c3ccccc3)cc(=O)[nH]2)cc1 | 0% | -3.0 | -3 | . | .
Cc1cc(C(=O)N2CCCC2C(=O)O)c(C)o1 (centres undefined) | -5% | -1.1 | -3 | -1 | -3
Cc1nc(CN(C)C(=O)CC2C(=O)NCCN2Cc2ccc(-c3ccccc3)cc2)cs1 (centres undefined) | . | 1.4 | 4 | . | .
O=C(Nc1nnc(SCc2ccc(Cl)cc2)s1)c1ccco1 | -1% | -2.2 | -5 | 12 | -48
COCCNCCOc1ccc(C(C)(C)c2ccccc2)cc1 | -3% | -1.3 | 0 | -25 | -15
CC(NC(=O)CN(C)Cc1cccc(F)c1)c1ccccc1 (centres undefined) | . | 0.1 | 1 | . | .
O=[N+]([O-])c1ccc(Cl)c(/C=N/Nc2nc(N3CCOCC3)nc(N3CCOCC3)n2)c1 | 2% | -2.0 | -3 | 2 | -19
NCCCC[C@@H]1NC(=O)[C@H](CCC(=O)O)NC(=O)c2cc([N+](=O)[O-])cc(I)c2NCC[C@@H](C(N)=O)NC1=O | -6% | 0.6 | -9 | 5 | -28
Cc1ccccc1N(C(=O)c1ccccn1)C(C(=O)NCc1ccccc1)c1cccnc1 (centres undefined) | . | -0.3 | -3 | . | .
Cc1ccc2cccc(S(=O)(=O)n3nc(C)cc3C)c2n1 | 6% | 0.9 | -8 | 10 | -1
CC1(C)Cc2cccc(OCC(=O)OCC(=O)NCc3ccccc3)c2O1 | . | -1.8 | -2 | . | .
O=C(NCCN1CCOCC1)c1ccc(CS(=O)(=O)c2ccc(Br)cc2)o1 | -12% | -1.7 | ? | 6 | -43 | Arbovirus anti repeat=0
COc1cc(NC(=O)COC(=O)/C=C/c2ccccc2Cl)cc(OC)c1 | -5% | 0.2 | 3 | -1 | -20
O=C(NCc1ccc(F)cc1)C(c1ccc(Cl)cc1)N(C(=O)c1csnn1)C1CC1 (centres undefined) | . | -0.2 | 1 | . | .
CCN(CC(=O)Nc1ccc2c(c1)OCCO2)Cc1cc(=O)oc2cc(C)c(C)cc12 | -3% | 6.2 | -4 | -7 | -12
COc1ccc(OC2C(=O)N(c3cc(C)ccc3C)C2c2ccc(OC)c(OC)c2)cc1 (centres undefined) | 0% | 0.7 | 2 | -2 | -21
CC(C)NC(=O)CC(=O)NN=C1CCCCC1 | 1% | -9.8 | -1 | 0 | .
COc1ccc(C(=O)Nc2ccc(S(=O)(=O)N3CCCCC3C)cc2)c(OC)c1OC (centres undefined) | -10% | 4.4 | 2 | 8 | -14 | Arbovirus anti repeat=3
CC1=C(C#N)C(c2cccnc2)C2=C(N1)c1ccccc1C2=O (centres undefined) | 1% | 0.2 | -7 | -5 | .
COc1cc(/C=N/n2c(C3CCCCC3)n[nH]c2=S)cc(Br)c1O | . | -0.6 | ? | . | .
COc1ccc(C(=O)OCC(=O)Nc2ccc([N+](=O)[O-])cc2OC)c(O)c1 | 2% | -4.8 | 1 | -5 | .
O=C(NCc1cccnc1)c1ccc(CN2CCc3ccccc3C2)cc1 | . | -7.6 | -14 | 1 | -33
COc1ccc(C(NC(=O)c2c(F)c(F)c(F)c(F)c2F)c2ccccc2)cc1 (centres undefined) | 0% | 3.5 | -7 | 0 | -24
O=C(Nc1ccc(F)cc1F)c1ccc(COc2c(F)c(F)cc(F)c2F)o1 | 8% | -1.9 | 8 | -3 | -18
COC(=O)c1c(C)nc2c(c(SC)nn2-c2ccccc2)c1N | 0% | 0.0 | 5 | 8 | -21
C/C=C/C=C(/NC(=O)c1ccccc1)C(=O)Nc1ccccc1 | . | -3.0 | 1 | . | .
CC[C@H](C)[C@H](NC(N)=O)C(=O)Nc1ccc(NC(C)=O)cc1 | -5% | -2.7 | 0 | . | .
CCCc1cc(=O)[nH]c(/N=C(/NC(=O)C(C)N2C(=O)c3ccccc3C2=O)Nc2ccccc2)n1 (centres undefined) | 2% | -2.8 | 8 | 3 | -33
COc1ccc(NC(=O)C(=O)N2N=C3CCCCC3C2(O)C(F)(F)F)cc1 (centres undefined) | -6% | -0.1 | 2 | 21 | .
Cn1c(CCN2CCOCC2)nc2cc(NC(=O)COc3ccc(Cl)cc3)ccc21 | -5% | -1.7 | 18 | -11 | -6
C#CCOCCOCCOCCNc1nc(N2CCN(C(=O)C([C@@H](C)CC)n3cc(C(N)Cc4ccc(O)cc4)nn3)CC2)nc(N2CCN(C(=O)[C@H](CCC(=O)O)n3cc(C(N)[C@H](C)CC)nn3)CC2)n1 (some centres undefined) | -18% | 1.3 | -17 | 3 | .
CCOC(=O)C1=C(C)NC(C)=C(C(=O)OCC)C1C(=O)OCC(=O)N1CCc2ccccc21 | -1% | -0.3 | 2 | -10 | -35
CN(c1ccc(OCC(=O)OCC(=O)Nc2cccc([N+](=O)[O-])c2)cc1)S(=O)(=O)c1ccc(F)cc1 | 4% | 2.1 | -3 | 2 | .
Cc1cc(C(=O)COC(=O)c2cccn2C)c(C)n1Cc1ccco1 | -1% | 0.7 | 3 | -3 | .
O=C(NC(=O)c1c(F)cccc1F)O/N=C1\CCCc2occc21 | -3% | -0.7 | -7 | . | .
COc1ccc(OC)c(NC(=O)Cn2c(C)nc3ccccc3c2=O)c1 | -5% | -0.3 | -2 | -4 | .

Looked up one by one from above, 3 records:
SMILES | Mtb growth | RecA splice inh | Mtb betalactam | Arbovirus anti | YopH PTP inh | others
COc1ccc(/C=C2\SC(=O)N(CC(=O)NNC(=O)c3ccccc3O)C2=O)cc1 | -4% | -5.0 | 4 | -23 | -31
COc1ccc(OC)c(NC(=O)Cn2c(C)nc3ccccc3c2=O)c1 | -5% | -0.3 | -2 | -4 | .
COCCNCCOc1ccc(C(C)(C)c2ccccc2)cc1 | -3% | -1.3 | 0 | -25 | -15

(further entries)
SMILES | Mtb growth | RecA splice inh | Mtb betalactam | Arbovirus anti | YopH PTP inh | others
O=C(Nc1cccc(Cl)c1)Nc1cc(S(=O)(=O)N2CCCCC2)ccc1Cl | 20% | -0.3 | 2 | -17 | -30
Cc1nc2ccc(S(=O)(=O)NCC(=O)N3CCCCC3)cc2s1 | -1% | -5.4 | -9 | 7 | 1
Fc1cccc(NC(=S)NCCc2ccccc2)c1 | 12% | . | -2 | 7 | -12
CC#CCN(CC#CC)S(=O)(=O)c1ccc(-n2cnnn2)c(OC)c1 | 16% | -0.6 | 5 | 9 | -39
CCCCCCC1C(C#N)=C(N)OC2=C1C(=O)CCC2 (centres undefined) | 6% | -0.3 | 3 | 1 | -56 | Arbovirus anti repeat=5
COc1cc(C(C)=O)ccc1Oc1ncnc2c1cnn2-c1cccc(Cl)c1 | 4% | -2.1 | 1 | 3 | -18
CCc1ccc(Nc2ncnc3nc[nH]c23)cc1 | . | 0.6 | 0 | . | .
Cc1c(NC(=O)Nc2cccs2)cccc1[N+](=O)[O-] | 3% | . | 2 | -1 | .
Cn1c(=O)[nH]c(=O)c2c1nc(SCC(O)CCl)n2Cc1ccccc1 (centres undefined) | . | 0.2 | 2 | . | .
COc1cc(-c2nc(-c3ccccc3)c(-c3ccc(F)cc3)[nH]2)cc2c1OCO2 | 7% | 4.0 | 6 | -5 | -29
COc1cc(OC)cc(C(=O)Nc2nnc(SCC(=O)NCc3ccco3)s2)c1 | . | 0.9 | ? | . | .
COc1ccc(S(=O)(=O)Nc2ccc(Oc3ncccn3)c(Cl)c2)cc1 | -10% | -5.3 | -10 | -4 | -31
Cc1cc2cc(CCNC(=O)CCc3ccccc3)c(=O)[nH]c2cc1C | . | -0.2 | 0 | . | .
COc1ccc(OC)c(C(=O)COC(=O)c2cccnc2Cl)c1 | 7% | 0.9 | -6 | 22 | .
Cc1cc(C(C)(C)C)oc1C(=O)N(CC(=O)NC1CCCC1)c1cccc(C(F)(F)F)c1 | 6% | 8.8 | 16 | -5 | -16
COc1ccccc1CNN | 2% | -1.4 | 4 | 2 | .

Compound activity as filed in PubChem.
